UUG_fidelity – alters start codon recognition fidelity in yeast; S. cerevisiae UUG-firefly luciferase reporter, luminescence/redox ratio; activity score, % at 18.7 µM; 350,000 compounds, 0.13% hits;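 active means replicate mean at a twofold rise or more, about +100% in these data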;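 further: firefly luciferase made from a UUG start codon reports start codon fidelity; reporter light over untreated wells divided by growth signal over untreated wells; some hits fall short of that in this replicate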
HIV_Env_fusion – blocks HIV Env-driven cell-cell fusion. inhibition, % at 12.3 µM. 360,000 compounds, 1.1% hits. AID 651610. HeLa-JRFL Env/CEM21 cell fusion, luciferase;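 active means mean replicate inhibition score of at least 50 and every replicate individually at or above 50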;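 further: 0% = plate neutral controls and 100% = maraviroc near 300 nM; one replicate is shown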
Active calls of the source: *; [ ] = another dose, or the depositor's remark.

The first 2 records, to show the layout:
SMILES UUG_fidelity HIV_Env_fusion
CN(C)CC(=O)N1[C@H](C#N)[C@H](c2ccc(C#CC3CCCC3)cc2)[C@@H]1CO 1 10[16.7_µM]
C[C@H](CO)N1C[C@H](C)[C@@H](CN(C)Cc2ccncc2)Oc2ccc(NC(=O)CCC(F)(F)F)cc2C1=O -20 2[16.7_µM]

This part in full, previewed entries included:
SMILES UUG_fidelity HIV_Env_fusion
CN(C)CC(=O)N1[C@H](C#N)[C@H](c2ccc(C#CC3CCCC3)cc2)[C@@H]1CO 1 10[16.7_µM]
C[C@H](CO)N1C[C@H](C)[C@@H](CN(C)Cc2ccncc2)Oc2ccc(NC(=O)CCC(F)(F)F)cc2C1=O -20 2[16.7_µM]
C[C@@H]1CN([C@H](C)CO)C(=O)c2cccc(NS(=O)(=O)c3ccccc3)c2O[C@H]1CN(C)C(=O)Nc1ccc(C(F)(F)F)cc1 -3 25[16.7_µM]
C[C@@H]1CN([C@H](C)CO)C(=O)Cc2cc(NS(=O)(=O)c3ccccc3)ccc2O[C@H]1CN(C)S(=O)(=O)c1ccccc1 9 4[16.7_µM]
Cc1ccc(S(=O)(=O)NCC[C@H]2CC[C@@H](NS(=O)(=O)c3ccccc3Cl)[C@@H](CO)O2)cc1 2 14[16.7_µM]
Cc1ccc(-c2cnc3c(c2)C(=O)N([C@H](C)CO)C[C@@H](C)[C@@H](CN(C)C(=O)Cc2ccncc2)O3)cc1 1 -5[16.7_µM]
Cc1ccc(S(=O)(=O)N(C)C[C@H]2Oc3c(cccc3N(C)C)C(=O)N([C@@H](C)CO)C[C@@H]2C)cc1 10 9[16.7_µM]
O=C(C[C@@H]1CC[C@H](NC(=O)C2CCC2)[C@@H](CO)O1)NCc1ccccc1Cl -3 2[16.7_µM]
COc1ccc(S(=O)(=O)N(C)C[C@H]2Oc3ccc(NC(=O)Nc4cccc5ccccc45)cc3C(=O)N([C@H](C)CO)C[C@H]2C)cc1 -14 17[16.7_µM]
CCCNC(=O)C[C@@H]1CC[C@H]2[C@@H](COc3ccc(NC(=O)Cc4ccccc4)cc3C(=O)N2C)O1 -4 -1[16.7_µM]
C[C@@H]1CCCCO[C@H](CN(C)Cc2ccc(C(=O)Nc3ccccc3N)cc2)[C@@H](C)CN([C@@H](C)CO)C(=O)c2cc(NS(=O)(=O)c3ccc(Cl)cc3)ccc2O1 14 -19[16.7_µM]
C=CCNC(=O)[C@H]1[C@@H]2C(=O)O[C@@H](c3ccccc3)[C@@H](c3ccccc3)N2[C@@H](c2ccc(O)cc2)[C@]12C(=O)N(C(=O)OCCOC)c1ccc(C#CC3(O)CCCCCC3)cc12 -3 6[16.7_µM]
C[C@@H]1CCCCO[C@@H](CN(C)Cc2ccccc2)[C@H](C)CN([C@@H](C)CO)C(=O)c2cc(N(C)C)ccc2O1 -13 -19[16.7_µM]
COc1ccc(S(=O)(=O)Nc2ccc3c(c2)C(=O)N([C@H](C)CO)C[C@@H](C)[C@@H](CN(C)S(=O)(=O)c2cn(C)cn2)O3)cc1 -5 -3[16.7_µM]
COc1ccc(CN(C)C[C@H]2OCCCC[C@@H](C)Oc3ccc(NS(=O)(=O)c4c(C)noc4C)cc3C(=O)N([C@@H](C)CO)C[C@H]2C)cc1 26 -5[16.7_µM]
COCC#Cc1ccc2c(c1)O[C@H](CN(C)C(=O)c1ccccc1)[C@H](C)CN([C@H](C)CO)S2(=O)=O 0 -18[16.7_µM]
C[C@H](CO)N1C[C@H](C)[C@H](CN(C)S(=O)(=O)c2cn(C)cn2)OCCCC[C@H](C)Oc2ccc(NC(=O)Nc3ccc(C(F)(F)F)cc3)cc2C1=O -19 22[16.7_µM]
CC(C)C#Cc1ccc2c(c1)O[C@@H](CN(C)CC1CCOCC1)[C@H](C)CN([C@H](C)CO)S2(=O)=O -1 28[16.7_µM]
C[C@H]1CN([C@@H](C)CO)C(=O)c2cc(C#Cc3cccnc3)cnc2O[C@@H]1CN(C)Cc1ccc(F)cc1 -2 18[16.7_µM]
C[C@H](CO)N1C[C@H](C)[C@@H](CN(C)C)Oc2ncc(C3=CCCC3)cc2C1=O -8 -7[16.7_µM]
C[C@H](CO)N1C[C@H](C)[C@@H](CN(C)CC2CCCC2)Oc2ncc(C#Cc3ccncc3)cc2C1=O -10 -25[16.7_µM]
C[C@@H]1CN([C@H](C)CO)C(=O)Cc2cc(NS(C)(=O)=O)ccc2O[C@@H]1CN(C)S(=O)(=O)c1ccccc1 -3 -9[16.7_µM]
C[C@H](CO)N1C[C@H](C)[C@H](CN(C)Cc2ccc3c(c2)OCO3)OCCCC[C@H](C)Oc2ccc(NC(=O)CCC(F)(F)F)cc2C1=O 9 -119[16.7_µM]
CC(=O)N(C)C[C@H]1Oc2cc(/C=C/c3ccccc3)ccc2S(=O)(=O)N([C@H](C)CO)C[C@@H]1C 19 -5[16.7_µM]
C[C@H](CO)N1C[C@H](C)[C@H](CN(C)S(=O)(=O)c2ccccc2)Oc2ccc(NC(=O)Nc3cccc4ccccc34)cc2C1=O -5 13[16.7_µM]
C[C@H]1CN([C@@H](C)CO)C(=O)Cc2cc(N(C)C)ccc2O[C@H]1CN(C)CC1CC1 -18 59*[16.7_µM]
Cc1noc(C)c1NC(=O)Nc1ccc2c(c1)CC(=O)N([C@H](C)CO)C[C@H](C)[C@H](CN(C)S(=O)(=O)c1cn(C)cn1)O2 -10 14[16.7_µM]
C[C@@H]1CN([C@@H](C)CO)C(=O)c2cccc(NC(=O)Nc3ccccc3)c2O[C@H]1CN(C)C 1 -22[16.7_µM]
COc1ccc(S(=O)(=O)N(C)C[C@H]2OCCCC[C@@H](C)Oc3ccc(NS(=O)(=O)c4ccc(C)cc4)cc3C(=O)N([C@H](C)CO)C[C@@H]2C)cc1 -11 7[16.7_µM]
Cc1ccc(S(=O)(=O)Nc2ccc3c(c2)C(=O)N([C@@H](C)CO)C[C@@H](C)[C@@H](CN(C)Cc2ccncc2)OCCCC[C@@H](C)O3)cc1 -2 -10[16.7_µM]
COc1ccccc1C#Cc1ccc([C@H]2[C@H](C#N)N(C(=O)C3CCC3)[C@H]2CO)cc1 -7 4[16.7_µM]
O=C(C[C@H]1CC[C@@H](NC(=O)CCN2CCCCC2)[C@H](CO)O1)Nc1ccc(-c2ccccc2)cc1 -4 -6[16.7_µM]
COc1ccc(C#Cc2cnc3c(c2)C(=O)N([C@H](C)CO)C[C@H](C)[C@H](CN(C)S(=O)(=O)c2cn(C)cn2)O3)cc1OC 0 -5[16.7_µM]
CC(C)NC(=O)N(C)C[C@@H]1Oc2cc(C#Cc3cccc(F)c3)ccc2S(=O)(=O)N([C@@H](C)CO)C[C@H]1C 0 23[16.7_µM]
COc1ccc(CN(C)C[C@@H]2OCCCC[C@@H](C)Oc3ccc(NC(=O)c4ccncc4)cc3C(=O)N([C@@H](C)CO)C[C@H]2C)cc1 8 3[16.7_µM]
C[C@@H]1CN([C@H](C)CO)C(=O)Cc2cc(NC(=O)Cc3ccccc3)ccc2O[C@@H]1CN(C)S(C)(=O)=O -6 -24[16.7_µM]
O=C(C[C@H]1C[C@H]2c3cc(NC(=O)Nc4ccccc4F)ccc3O[C@H]2[C@@H](CO)O1)NCc1ccc(Oc2ccccc2)cc1 -11 -1[16.7_µM]
CC(C)CC#Cc1cnc2c(c1)C(=O)N([C@H](C)CO)C[C@@H](C)[C@@H](CN(C)C(=O)c1ccc(F)cc1)O2 13 26[16.7_µM]
COc1ccc(NC(=O)N(C)C[C@@H]2Oc3cc(C#CCN(C)C)ccc3S(=O)(=O)N([C@@H](C)CO)C[C@@H]2C)cc1 9 -35[16.7_µM]
COc1ccc(NC(=O)Nc2cccc3c2O[C@@H](CN(C)C(=O)Nc2cccc4ccccc24)[C@@H](C)CN([C@@H](C)CO)C3=O)cc1 7 -30[16.7_µM]

In the list so far, these contain a CF3 group.
SMILES UUG_fidelity HIV_Env_fusion
C[C@H](CO)N1C[C@H](C)[C@@H](CN(C)Cc2ccncc2)Oc2ccc(NC(=O)CCC(F)(F)F)cc2C1=O -20 2[16.7_µM]
C[C@@H]1CN([C@H](C)CO)C(=O)c2cccc(NS(=O)(=O)c3ccccc3)c2O[C@H]1CN(C)C(=O)Nc1ccc(C(F)(F)F)cc1 -3 25[16.7_µM]
C[C@H](CO)N1C[C@H](C)[C@H](CN(C)S(=O)(=O)c2cn(C)cn2)OCCCC[C@H](C)Oc2ccc(NC(=O)Nc3ccc(C(F)(F)F)cc3)cc2C1=O -19 22[16.7_µM]
C[C@H](CO)N1C[C@H](C)[C@H](CN(C)Cc2ccc3c(c2)OCO3)OCCCC[C@H](C)Oc2ccc(NC(=O)CCC(F)(F)F)cc2C1=O 9 -119[16.7_µM]

Going on with the list.
SMILES UUG_fidelity HIV_Env_fusion
COCC#Cc1cnc2c(c1)C(=O)N([C@H](C)CO)C[C@H](C)[C@H](CN(C)S(=O)(=O)c1cccc(OC)c1)O2 4 -11[16.7_µM]
COc1ccc(NC(=O)Nc2ccc3c(c2)C(=O)N([C@@H](C)CO)C[C@H](C)[C@H](CN(C)S(=O)(=O)c2ccc(Cl)cc2)O3)cc1 -6 66*[16.7_µM]
C[C@H]1CN([C@@H](C)CO)C(=O)c2cccc(NC(=O)C3CCOCC3)c2O[C@@H]1CN(C)Cc1ccc(C(=O)O)cc1 -11 -7[16.7_µM]
CC(=O)N(C)C[C@@H]1Oc2ncc(-c3cccc(C#N)c3)cc2C(=O)N([C@H](C)CO)C[C@@H]1C -5 -32[16.7_µM]
CO[C@H]1CN(C)C(=O)c2ccc(NC(=O)C3CCCC3)cc2OC[C@@H](C)N(CCC(F)(F)F)C[C@H]1C 7 -1[16.7_µM]
C[C@H]1CN([C@@H](C)CO)S(=O)(=O)c2ccc(C3=CCCC3)cc2O[C@H]1CN(C)C(=O)Nc1ccc2c(c1)OCO2 1 -31[16.7_µM]
COCC(=O)N(C)C[C@H]1Oc2cc(-c3ccccc3)ccc2S(=O)(=O)N([C@@H](C)CO)C[C@H]1C 6 -6[16.7_µM]
Cc1noc(C)c1S(=O)(=O)Nc1ccc2c(c1)C(=O)N([C@H](C)CO)C[C@@H](C)[C@@H](CN(C)Cc1ccncc1)O2 10 18[16.7_µM]
Cc1ccccc1-c1cnc2c(c1)C(=O)N([C@@H](C)CO)C[C@@H](C)[C@@H](CN(C)C(=O)c1cccnc1)O2 9 -34[16.7_µM]
C[C@@H]1CN([C@H](C)CO)C(=O)c2cccc(NS(=O)(=O)c3ccc(F)cc3)c2O[C@@H]1CN(C)C(=O)NC1CCCCC1 8 5[16.7_µM]
O=C(O)C[C@@H]1C=C[C@H](NC(=O)c2ccncc2)[C@@H](CO)O1 -24 2[16.7_µM]
O=C(C[C@@H]1C[C@@H]2c3cc(NC(=O)CC4CC4)ccc3O[C@@H]2[C@@H](CO)O1)NCc1ccc2c(c1)OCO2 2 14[16.7_µM]
C[C@@H]1CCCCO[C@@H](CN(C)C(=O)Cc2ccccc2)[C@H](C)CN([C@@H](C)CO)C(=O)c2cc(NC(=O)Nc3ccccc3)ccc2O1 -3 -28[16.7_µM]
Cc1ccc(S(=O)(=O)N(C)C[C@@H]2Oc3c(NC(=O)c4cc(C)nn4C)cccc3C(=O)N([C@H](C)CO)C[C@H]2C)cc1 -5 -86[16.7_µM]
COCC(=O)Nc1ccc2c(c1)[C@H]1C[C@@H](CC(=O)NCc3ccccc3)O[C@H](CO)[C@H]1O2 -7 6[16.7_µM]
COc1ccc(S(=O)(=O)Nc2ccc3c(c2)CC(=O)N([C@H](C)CO)C[C@H](C)[C@H](CN(C)Cc2ccc4c(c2)OCO4)O3)cc1 6 14[16.7_µM]
C[C@@H]1CN([C@@H](C)CO)C(=O)c2cccc(NS(=O)(=O)c3cn(C)cn3)c2O[C@H]1CN(C)C(=O)Nc1ccc(F)cc1 1 2[16.7_µM]
C[C@@H]1CN([C@H](C)CO)C(=O)c2cc(-c3ccncc3)cnc2O[C@H]1CN(C)C 11 -16[16.7_µM]
Cc1noc(C)c1NC(=O)N(C)C[C@H]1Oc2c(NC(=O)C3CC3)cccc2C(=O)N([C@@H](C)CO)C[C@@H]1C -6 -6[16.7_µM]
COc1ccc(CN(C)C[C@@H]2OCCCC[C@H](C)Oc3ccc(NC(=O)Nc4ccc(OC)cc4)cc3C(=O)N([C@@H](C)CO)C[C@@H]2C)cc1 2 64*[16.7_µM]
Cc1noc(C)c1NC(=O)N(C)C[C@@H]1OCCCC[C@@H](C)Oc2ccc(NC(=O)Nc3cccc4ccccc34)cc2C(=O)N([C@@H](C)CO)C[C@H]1C 13 6[16.7_µM]
O=C(C[C@@H]1C[C@H]2c3cc(NC(=O)C4CCC4)ccc3O[C@H]2[C@@H](CO)O1)NC1CCCCC1 6 10[16.7_µM]
Cc1ccc(S(=O)(=O)Nc2ccc3c(c2)C(=O)N([C@@H](C)CO)C[C@@H](C)[C@@H](CN(C)C(=O)CCCN(C)C)OCCCC[C@H](C)O3)cc1 11 -44[16.7_µM]
COc1ccc(S(=O)(=O)Nc2ccc3c(c2)C(=O)N([C@@H](C)CO)C[C@@H](C)[C@H](CN(C)Cc2ccccc2)OCCCC[C@@H](C)O3)cc1 12 -23[16.7_µM]
O=C(C[C@@H]1CC[C@@H](NC(=O)c2ccc3c(c2)OCO3)[C@H](CO)O1)NC1Cc2ccccc2C1 -1 17[16.7_µM]
COc1ccc(NC(=O)N(C)C[C@@H]2Oc3c(NC(=O)Nc4ccc5c(c4)OCO5)cccc3C(=O)N([C@@H](C)CO)C[C@H]2C)cc1 2 -3[16.7_µM]
CN(C)CC(=O)Nc1ccc2c(c1)[C@@H]1C[C@H](CC(=O)NCC3CC3)O[C@H](CO)[C@@H]1O2 -5 -19[16.7_µM]

Some of these compounds in order of heavy-atom count, high to low.
SMILES UUG_fidelity HIV_Env_fusion
COc1ccc(NC(=O)N(C)C[C@@H]2Oc3c(NC(=O)Nc4ccc5c(c4)OCO5)cccc3C(=O)N([C@@H](C)CO)C[C@H]2C)cc1 2 -3[16.7_µM]
O=C(C[C@@H]1C[C@H]2c3cc(NC(=O)C4CCC4)ccc3O[C@H]2[C@@H](CO)O1)NC1CCCCC1 6 10[16.7_µM]
CN(C)CC(=O)Nc1ccc2c(c1)[C@@H]1C[C@H](CC(=O)NCC3CC3)O[C@H](CO)[C@@H]1O2 -5 -19[16.7_µM]

Assay outcomes from PubChem.

Some of the compounds tested; count on the stated rates, not on these rows.
